YopH PTP inh = blocks Yersinia enterocolitica YopH tyrosine phosphatase. fluorescence Ex485/Em525. inhibition, %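 (about 10 µM by stock and volumes)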. 140,000 compounds, 0.16% hits;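 active = inhibition of 50% or more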;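 note: controls were vehicle for no effect and minimum signal wells for full effect; inactives centre near -20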
RecA splice inh = inhibitors of M. tuberculosis RecA intein splicing; P9WHJ3; cell-free RecA intein splicing, fluorescence; inhibition, %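 (about 9 µM by stock and volumes)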; 290,000 compounds, 0.75% hits; in the data active = inhibition above about 30%; inconclusive = no clear call, values can overlap the other calls;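 note: 0% = vehicle wells and 100% = reference inhibitor control wells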
Target sequence (P9WHJ3 whole entry, looked up, canonical isoform): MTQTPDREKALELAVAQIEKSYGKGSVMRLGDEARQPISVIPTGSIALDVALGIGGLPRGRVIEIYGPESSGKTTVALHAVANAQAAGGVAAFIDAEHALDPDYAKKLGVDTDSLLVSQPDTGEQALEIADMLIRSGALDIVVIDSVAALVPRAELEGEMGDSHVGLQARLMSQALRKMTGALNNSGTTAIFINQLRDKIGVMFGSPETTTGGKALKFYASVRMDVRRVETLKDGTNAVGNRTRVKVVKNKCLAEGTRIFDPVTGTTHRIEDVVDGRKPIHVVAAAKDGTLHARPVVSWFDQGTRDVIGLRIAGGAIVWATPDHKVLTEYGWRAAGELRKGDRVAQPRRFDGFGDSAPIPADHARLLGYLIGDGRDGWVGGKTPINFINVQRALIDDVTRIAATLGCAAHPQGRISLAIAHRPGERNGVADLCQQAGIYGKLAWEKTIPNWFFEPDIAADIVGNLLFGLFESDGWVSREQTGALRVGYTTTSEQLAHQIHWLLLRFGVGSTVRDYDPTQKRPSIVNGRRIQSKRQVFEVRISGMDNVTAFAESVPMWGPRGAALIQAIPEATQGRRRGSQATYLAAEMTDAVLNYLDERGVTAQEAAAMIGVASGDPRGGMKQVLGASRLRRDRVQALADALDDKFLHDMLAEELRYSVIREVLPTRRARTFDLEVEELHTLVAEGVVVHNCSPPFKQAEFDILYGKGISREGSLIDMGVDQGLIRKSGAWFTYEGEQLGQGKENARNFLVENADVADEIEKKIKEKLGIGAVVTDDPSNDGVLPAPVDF
Mtb betalactam = beta-lactam sensitization of Mtb H37Rv. M. tuberculosis H37Rv growth with meropenem, percent inhibition; hits of this screen are not shown here. inhibition, % at 25 µM. 330,000 compounds, 0.27% hits. AID 434955;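 active = about 74% or more and at least 40 points above the plate without the antibiotic, then above 30% in a dose series; inconclusive = first-round hits that could not be retested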;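 note: growth measured after seven days incubation then overnight dye step; 0% = bacteria only wells and 100% = bacteria with antibiotic; twin plates without the antibiotic show which effects depend on it; some results filed as inactive read as strong as hits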
Arbovirus inh = antivirals against arbovirus infection; AID 1251; inhibition, % at 10 µM; 200,000 compounds, 0.37% hits; arbovirus infection cell-based antiviral screen;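 active = inhibition from about 30%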;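 note: bluetongue infection of BSR cells; cell survival read as ATP light after 72 h; 0% = infected wells without compound and 100% = uninfected wells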
Mtb H37Rv = M. tuberculosis H37Rv growth inhibitors, H37Rv strain (AID 1626) | M. tuberculosis H37Rv growth inhibition; higher % means a stronger effect | one-dose inhibition, % at 10 µM; IC50 in µM for titrated hits | 220,000 compounds, 0.95% hits;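 active = confirmed in a dose series; inconclusive = inhibition above 80% but not taken into the dose series; inactive = below 80% or under 30% at every dose of the series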;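 note: bacteria incubated seven days before Alamar blue readout; 0% = bacteria only wells and 100% = bacteria with antibiotic wells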
Arbovirus inh repeat = also measured in Arbovirus inh; calls as there; inhibition, %; measured here: 10K subset replicate screen; many hits read low in the repeat;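 first of two repeat runs on a subset; 0% = infected and 100% = uninfected wells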
* = called active by the depositor; ? = inconclusive; nt = no result given.

SMILES	YopH PTP inh	RecA splice inh	Mtb betalactam	Arbovirus inh	Mtb H37Rv	others
COc1ccc(-c2nc3n(n2)C(c2ccccc2)C2=C(CCCC2=O)N3)cc1OC (stereo not given)	-33	5.5	10	5	-12%
Fc1ccccc1NC(=S)N(CCCN1CCOCC1)Cc1cccnc1	nt	0.9	8	9	-4%
O=C(O)c1cccnc1SC1CC(=O)N(c2cccc3ccccc23)C1=O (stereo not given)	nt	0.2	5	4	-5%
O=[N+]([O-])c1ccccc1OCCCOc1cccc2cccnc12	nt	3.2	6	nt	nt
CCOc1ccc(S(=O)(=O)NCCN2CCOCC2)c2ccccc12	-31	0.0	4	11	-4%
Cc1nc2c(-c3ccc(F)cc3)c(C)nn2c(C)c1CCC(=O)N1CCN(c2ccccn2)CC1	-29	0.1	-1	-23	4%
CCOc1ccccc1N1C(=O)NC(=O)C(CCc2ccncc2)(CCc2ccncc2)C1=O	-15	-4.9	-13	5	-9%
CCN1CCN(C(=O)C(C)Nc2cc(Cl)c(OC)cc2OC)CC1 (stereo not given)	nt	-0.8	3	1	3%
Cc1onc(-c2c(F)cccc2Cl)c1C(=O)Nc1ccc(S(=O)(=O)Nc2ncccn2)cc1	-13	-0.7	nt	-1	-4%
O=C(CCCc1ccccc1)Nc1nnc(C(F)(F)F)s1	nt	-3.5	-1	13	-5%
CCCOc1ccc(N2CC(C(=O)Nc3ccccc3C(=O)NC)CC2=O)cc1 (stereo not given)	nt	3.5	-4	5	0%
CCOC(=O)N1CCN(C(=O)C(c2ccccc2)c2ccccc2)CC1	0	3.9	-14	3	-11%
O=C(Nc1sc2c(c1-c1nc3ccccc3[nH]1)CCCC2)C1CC1	-43	0.7	2	-12	-5%
CCN(CC)CCNC(=O)c1ccc(NC(=O)c2ccc(COc3ccccc3)cc2)cc1	nt	2.9	5	nt	nt
COc1cccc(CNC(=O)COc2cccc(-n3cnnn3)c2)c1	nt	-6.1	-7	nt	nt
CC(C)OC(=O)c1cccc(NC(=O)CSc2nnc(N)s2)c1	nt	0.1	3	-3	nt
CCOC(=O)C1CCN(c2c(NCc3ccc(C(=O)NC4CCCC4)cc3)c(=O)c2=O)CC1	-16	0.1	-5	1	-2%
CSCCC1NC(=O)N(CC(=O)Nc2ccc(Br)cc2Br)C1=O (stereo not given)	nt	1.2	1	nt	-4%
Cc1ccccc1NC(=O)c1ccc(-c2ccc(Cl)cc2Cl)o1	-26	18	57	20	66%
CC1=NN(C(=O)CCc2ccc3c(c2)OCO3)C(O)(C(F)(F)F)C1 (stereo not given)	nt	-2.6	2	-7	-1%
S=C(Nc1ccc(Cl)cc1)NC1CC2CCCC(C1)N2C1CCCC1 (stereo not given)	-41	4.0	13	6	-2%
CN(C)S(=O)(=O)c1ccc(N2C(=O)CC2(/C=C/c2ccccc2)C(=O)NC2CCCC2)cc1 (stereo not given)	-21	-8.3	-3	-5	5%
O=C(Nc1ccccc1)C1CC(=O)n2ncnc2N1 (stereo not given)	-9	-2.3	-3	3	-2%
O=S(=O)(NCCN1CCCC1)c1ccc(C(F)(F)F)cc1	nt	-1.8	6	nt	nt
COc1ccccc1NC(=O)c1cc2ccccc2o1	-18	3.4	96	-3	6%
Continuation:
SMILES	YopH PTP inh	RecA splice inh	Mtb betalactam	Arbovirus inh	Mtb H37Rv	others
Cc1ccc(C(=O)O)cc1-n1c(=O)n(Cc2ccccc2)c(=O)c2[nH]cnc21	nt	0.7	-7	nt	nt
CC(=O)n1cc(C(C[N+](=O)[O-])SCCN)c2ccccc21 (stereo not given)	-9	2.3	-2	-5	-9%
Cc1ccc(S(=O)(=O)CC(=O)N2CCOCC2)cc1	nt	0.6	-5	2	-6%
CCCC1(C(=O)OCC)NC(c2ccco2)C2C(=O)N(C)C(=O)C21 (stereo not given)	nt	-3.7	7	23	-3%
Cc1ccc(C(=O)Nc2nnc(-c3ccncc3)s2)o1	23	-0.7	37	0	3%
O=C1NC(=O)[C@]2(Cc3ccccc3N3CCN(c4ccccc4)CC32)C(=O)N1c1ccccc1 (stereo not given in full)	-27	13	6	5	13%
Nc1nc2c(nc(Br)n2[C@@H]2O[C@@H]3COP(=O)(O)O[C@H]3[C@H]2O)c(=O)[nH]1	nt	-0.9	2	nt	-7%
CCN1CCN(CCNC(=O)C2CCN(Cc3nc(-c4ccc(Cl)cc4)oc3C)CC2)CC1	nt	0.0	-1	-8	nt	Arbovirus inh repeat=0
Cc1cc(C(=O)N/N=C/c2cccn2C)n[nH]1	-29	-1.8	4	-7	-6%
Cc1cccc(-n2cc[nH]c2=S)c1C	-8	2.1	-7	-1	2%
O=C(COC(=O)CCC(=O)c1ccc(F)cc1)Nc1cccc(S(=O)(=O)N2CCCC2)c1	nt	4.1	3	nt	-5%
COC(=O)c1ccc(CNC(=O)CN(CCC(C)C)S(=O)(=O)c2ccc3c(c2)OCCO3)cc1	-11	-1.3	5	1	-2%
COc1cccc(N2C(=O)C(O)=C(C(C)=O)C2c2ccc(OC)c(OC)c2)c1 (stereo not given)	7	-1.7	-2	1	-4%
O=c1oc(-c2ccccc2NS(=O)(=O)c2ccccc2)nc2ccccc12	-14	-3.4	-9	-1	9%
CC(C)(C)NC(=O)NC(=O)COC(=O)c1cc[n+]([O-])cc1	nt	0.6	10	26	29%
COc1cc2c(cc1OC)C(c1cccc(C)c1)CC(=O)N2 (stereo not given)	nt	3.3	-4	-3	-7%
Cc1ccc(-n2nc(C)c(=O)c(-c3ccccc3)c2NC(=O)c2cccs2)cc1	nt	0.2	-1	nt	-12%
O=C(NCCCN1CCOCC1)c1ccccc1NS(=O)(=O)c1ccc(F)cc1	nt	3.6	-5	12	4%
CCOC(=O)[C@@H]1[C@H]2COc3cc(OC)ccc3[C@@H]2N2C(=O)N(c3cccc(F)c3)C(=O)[C@]12C	nt	-2.7	-2	nt	nt
Cc1ccccc1OCCCC(=O)Nc1ccc2c(c1)OCO2	-19	8.1	19	-8	70%
Cc1cccc(C)c1OCC(O)CNC(C)c1ccccc1 (stereo not given)	nt	-2.2	1	nt	nt
Cc1cc(C)c(C)c(S(=O)(=O)N2CCN(c3ncnc4sc(C)c(C)c34)CC2)c1C	nt	1.3	-10	nt	nt
COc1cc(C(=O)OCC(=O)c2cc(C)n(C)c2C)cc(OC)c1OC	-34	-0.3	37	-7	-6%
COc1ccc(C(=O)Nc2ccc(S(=O)(=O)NC(C)(C)C)cc2)cc1[N+](=O)[O-]	nt	2.7	-5	3	-4%
Cc1cc(C)n(-c2n[nH]c(=O)c3ccccc23)n1	nt	1.3	2	nt	2%

For reference, part of the list above.
SMILES	YopH PTP inh	RecA splice inh	Mtb betalactam	Arbovirus inh	Mtb H37Rv	others
Cc1ccc(C(=O)O)cc1-n1c(=O)n(Cc2ccccc2)c(=O)c2[nH]cnc21	nt	0.7	-7	nt	nt
CC(=O)n1cc(C(C[N+](=O)[O-])SCCN)c2ccccc21 (stereo not given)	-9	2.3	-2	-5	-9%
Cc1ccc(S(=O)(=O)CC(=O)N2CCOCC2)cc1	nt	0.6	-5	2	-6%
CCCC1(C(=O)OCC)NC(c2ccco2)C2C(=O)N(C)C(=O)C21 (stereo not given)	nt	-3.7	7	23	-3%
Cc1ccc(C(=O)Nc2nnc(-c3ccncc3)s2)o1	23	-0.7	37	0	3%
O=C1NC(=O)[C@]2(Cc3ccccc3N3CCN(c4ccccc4)CC32)C(=O)N1c1ccccc1 (stereo not given in full)	-27	13	6	5	13%
Nc1nc2c(nc(Br)n2[C@@H]2O[C@@H]3COP(=O)(O)O[C@H]3[C@H]2O)c(=O)[nH]1	nt	-0.9	2	nt	-7%
CCN1CCN(CCNC(=O)C2CCN(Cc3nc(-c4ccc(Cl)cc4)oc3C)CC2)CC1	nt	0.0	-1	-8	nt	Arbovirus inh repeat=0
Cc1cc(C(=O)N/N=C/c2cccn2C)n[nH]1	-29	-1.8	4	-7	-6%
Cc1cccc(-n2cc[nH]c2=S)c1C	-8	2.1	-7	-1	2%
O=C(COC(=O)CCC(=O)c1ccc(F)cc1)Nc1cccc(S(=O)(=O)N2CCCC2)c1	nt	4.1	3	nt	-5%
COC(=O)c1ccc(CNC(=O)CN(CCC(C)C)S(=O)(=O)c2ccc3c(c2)OCCO3)cc1	-11	-1.3	5	1	-2%
COc1cccc(N2C(=O)C(O)=C(C(C)=O)C2c2ccc(OC)c(OC)c2)c1 (stereo not given)	7	-1.7	-2	1	-4%
O=c1oc(-c2ccccc2NS(=O)(=O)c2ccccc2)nc2ccccc12	-14	-3.4	-9	-1	9%
CC(C)(C)NC(=O)NC(=O)COC(=O)c1cc[n+]([O-])cc1	nt	0.6	10	26	29%
COc1cc2c(cc1OC)C(c1cccc(C)c1)CC(=O)N2 (stereo not given)	nt	3.3	-4	-3	-7%
Cc1ccc(-n2nc(C)c(=O)c(-c3ccccc3)c2NC(=O)c2cccs2)cc1	nt	0.2	-1	nt	-12%
O=C(NCCCN1CCOCC1)c1ccccc1NS(=O)(=O)c1ccc(F)cc1	nt	3.6	-5	12	4%
CCOC(=O)[C@@H]1[C@H]2COc3cc(OC)ccc3[C@@H]2N2C(=O)N(c3cccc(F)c3)C(=O)[C@]12C	nt	-2.7	-2	nt	nt

New compounds follow:
SMILES	YopH PTP inh	RecA splice inh	Mtb betalactam	Arbovirus inh	Mtb H37Rv	others
O=C(NCCCO)C(=O)Nc1cc2c3c(c1)CCC(=O)N3CCC2	nt	-0.2	7	nt	nt
CCC(C)[C@H](NC(=O)NC1CCCc2ccccc21)C(=O)O (stereo not given in full)	-32	0.3	-6	0	5%
COC(=O)CNC(c1ccccc1)c1cc(Br)ccc1NC(C)=O (stereo not given)	nt	0.4	-4	-6	-5%
COc1cccc(OC)c1C(=O)Nc1ccc(CN2CCOCC2)cc1	-10	-0.8	-3	13	-3%
CCn1c(SCC(=O)NC2CCCC2)nnc1-c1ccccn1	nt	1.3	-11	nt	nt
CCOC(=O)C1=C(CSc2nc3c(cc2C#N)CN(C)CC3)OC(N)=C(C#N)C1c1ccncc1 (stereo not given)	-11	-19	4	5	-2%
O=C1NC(=O)/C(=C\c2ccc(N3CCOCC3)o2)N1	nt	-6.8	-1	-5	0%
CCCc1nc2c([nH]1)c(=O)n(C)c(=O)n2C	nt	0.2	-4	nt	-3%
Cn1cccc1/C=C(\C#N)C(N)=S	nt	-1.7	-1	nt	-11%
Cc1ccc2nc(-c3ccc(SCC(=O)O)nc3)[nH]c2c1	-20	4.1	2	1	4%
N#Cc1cc2c([nH]c1=O)CCCC2	nt	0.2	3	nt	-9%
COC(=O)C1=C(Nc2ccc(C)cc2)C=C(C)C(C(=O)OC)C1c1ccc(OC)cc1 (stereo not given)	3	0.2	-20	-18	-1%
COc1ccc(C(=O)NNC(=O)C(NC(=O)c2ccccc2NC(=O)c2ccco2)C(C)C)cc1 (stereo not given)	9	4.6	-2	7	-4%
COc1ccc(-n2c(SCC(=O)O)nc3sc4c(c3c2=O)CCCC4)cc1	nt	-1.6	-6	nt	nt
CCN1C(=O)C(O)(CC(=O)C(C)(C)C)c2cc(Br)ccc21 (stereo not given)	nt	-9.7	-2	17	3%
O=C1Nc2ccc3sc4ccccc4c3c2C1=O	nt	?	9	nt	11%
CC(C)CCNC(=O)C1C2C=CC3(CN(Cc4ccccc4Cl)C(=O)C13)O2 (stereo not given)	-27	-0.5	1	-1	-2%	Arbovirus inh repeat=0
CCCCNC(=O)CN1C(=O)NC(CCc2ccccc2)C1=O (stereo not given)	nt	0.7	12	1	0%
O=C(CSc1ccc2nnc(-c3ccccc3)n2n1)N1CCN(c2ccccc2)CC1	-3	nt	nt	-5	nt	Arbovirus inh repeat=-1
c1ccc(CSc2nnc([C@@H]3CCCN3)o2)cc1	-7	-1.9	-9	3	-1%
COc1cccc(N=Nc2c(=O)[nH]n3c(=O)cc(C)[nH]c23)c1	-23	-1.8	-10	0	-4%
O=C(O)/C=C/c1ccc(Oc2ncccn2)cc1	nt	-0.8	1	nt	nt
Cc1ccc(NN=C2c3ccccc3-c3ccccc32)cc1	-23	-1.4	99	-1	?

Not all compounds are listed. The share of hits here may be higher or lower than overall.
